# Source: PubChem
# CBX7 AlphaScr – CBX7 chromodomain binding inhibitors, primary screen, biochemical, AlphaScreen. normalised signal (fraction of DMSO) (no concentration beside the values). Chromobox protein homolog 7 (Homo sapiens), O95931. AlphaScreen His6-CBX7 / biotin-H3K27me3 peptide binding; active compounds read low. AID 1224903, 2016. 66,000 tested, 1.1% active; in the data active means normalised signal below about 0.5;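 further: 100 nL library stock added to about 20 µL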
# Target sequence (O95931 whole entry, looked up): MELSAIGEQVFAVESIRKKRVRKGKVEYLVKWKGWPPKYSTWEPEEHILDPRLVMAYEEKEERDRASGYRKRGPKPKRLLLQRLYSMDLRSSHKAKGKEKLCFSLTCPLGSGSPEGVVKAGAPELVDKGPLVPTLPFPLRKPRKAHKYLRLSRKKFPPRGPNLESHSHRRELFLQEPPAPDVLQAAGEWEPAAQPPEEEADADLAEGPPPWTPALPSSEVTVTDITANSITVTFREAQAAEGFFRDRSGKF
# CBX7 AlphaScr z-score – second read-out of CBX7 AlphaScr, no call of its own (marks repeat the call); z-score; measured here: z-score of CBX7 signal; some inactives read as strong as hits; reference of the scale not given here;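 same signal on another scale; lower means less binding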
# Starred values were filed as active, the others as inactive. These rows are one share of the data; rates above refer to the full screens.
SMILES,CBX7 AlphaScr,CBX7 AlphaScr z-score
CCc1ccc(CN2C(=O)CCC2(C)C(=O)NC2CCCCC2)cc1 (configuration not stated),1.1,1.1
COc1cc2[nH]c(=O)n(CCC(=O)N3CCN(c4cccc(C(F)(F)F)c4)CC3)c(=O)c2cc1OC,1.1,2.3
CC(=O)Nc1cccc(-c2cn3cccc(C)c3n2)c1,0.83,-2
CN(Cc1ccccc1)C(=O)c1nn2c(C(F)(F)F)cc(-c3cccs3)nc2c1Cl,1.1,4.6
CCCC1C(c2ccccc2)NC(c2ccccc2)C(C)C1(O)CCC (configuration not stated),1.4,1.4
COc1ccc(NC(=O)c2cc(-c3ccc4c(c3)OCO4)on2)cc1OC,1.3,2.3
COc1cccc(CN2C(=O)c3ccccc3C2C(=O)NC2CCC(C)CC2)c1 (configuration not stated),1.1,1.6
O=C1Nc2ccccc2OC1CC(=O)N1CCN(Cc2ccccc2)CC1 (configuration not stated),0.97,-0.19
Cc1cc(C)cc(NC(=O)c2cc(C)nn2-c2ccccc2)c1,1,1.2
COc1ccc(S(=O)(=O)NCCc2c(C)[nH]c3c(Cl)cccc23)cc1,0.92,-2.8
FC(F)(F)c1cc(-c2ccc3c(c2)OCO3)nc(NC2CCCCC2)n1,1.7,5.4
O=C(CCCCCn1c(=O)[nH]c2ccsc2c1=O)NCCc1c[nH]c2ccccc12,0.97,-0.72
O=C(Cc1ccc(-n2c(=O)[nH]c3ccsc3c2=O)cc1)N1CCN(c2ncccn2)CC1,1.1,0.6
COC(=O)c1ccc(-n2c(/C=C/c3cccc4ccccc34)nc3ccccc3c2=O)cc1,1.1,0.099
CCn1ccnc1C(O)c1cccc(OC)c1OC (configuration not stated),1,0.95
COCCCNC(=O)c1ccc2c(c1)ncn2-c1ccccc1OC,1,0.62
O=C(Nc1sc2c(c1C(=O)N1CCCCC1)CCCCC2)c1ccccc1,1.1,1.7
FC(F)(F)c1cc(-c2ccccc2)nc(NCc2ccc(Cl)cc2)n1,1.3,3.6
COc1ccc(Nc2cc(C(=O)NCCN(Cc3ccccc3)C(C)C)c3ccccc3n2)c(OC)c1,0.79,-4.2
COc1ccc(Nc2cc(C(=O)NC3CCC(C)CC3)c3ccccc3n2)c(OC)c1 (configuration not stated),0.8,-3.1

# Part of the list above, with two lines to a compound.
# Values run as follows: CBX7 AlphaScr, CBX7 AlphaScr z-score
- CN(Cc1ccccc1)C(=O)c1nn2c(C(F)(F)F)cc(-c3cccs3)nc2c1Cl
→ 1.1, 4.6
- CCCC1C(c2ccccc2)NC(c2ccccc2)C(C)C1(O)CCC (configuration not stated)
→ 1.4, 1.4
- COc1ccc(NC(=O)c2cc(-c3ccc4c(c3)OCO4)on2)cc1OC
→ 1.3, 2.3
- COc1cccc(CN2C(=O)c3ccccc3C2C(=O)NC2CCC(C)CC2)c1 (configuration not stated)
→ 1.1, 1.6

# The listing continues:
SMILES,CBX7 AlphaScr,CBX7 AlphaScr z-score
CCOc1ccc(NC(=O)C(NS(=O)(=O)c2ccc3nc(C)sc3c2)C(C)C)cc1 (configuration not stated),0.94,-1.1
Cc1ccc(-c2nc(-c3cccc(C)c3)no2)cc1,1.3,11
Cc1ccc(NC(=O)c2ccccc2NC(=O)c2cccc(S(=O)(=O)N3CCCCC3)c2)c(C)c1,0.83,-2.6
Cc1cccc(-n2ncc3c(N(C)CCc4ccccn4)ncnc32)c1,1.1,0.85
CCCCN1C(=O)C(O)(CC(=O)c2ccccn2)c2cc(Br)ccc21 (configuration not stated),0.75,-0.33
CCOC(=O)CNC(=O)c1cnc(Nc2ccc(C)c(Cl)c2)c2ccccc12,1.1,2.5
O=C(Cn1c(SCc2cccc(F)c2)nc2ccncc21)Nc1cccc(F)c1,0.96,-1.3
O=C(Cn1cc(S(=O)(=O)c2ccc(F)cc2)c(=O)c2cc(F)ccc21)Nc1ccc(Cl)cc1,0.86,-2.1
Cc1cccn2c(Nc3ccc4c(c3)OCO4)c(-c3ccccn3)nc12,0.75,-2.4
Cc1ccc2cc(CCNC(=O)Cc3cccc4ccccc34)c(=O)[nH]c2c1,1,1.7
Cc1ccc2nc(-c3ccc(NC(=O)Nc4ccccc4Cl)cc3)sc2c1,1.1,1.8
O=C(Nc1nc2ccc(Br)cc2s1)c1ccccc1Oc1ccccc1,0.96,-0.092
CS(=O)(=O)N1CCC(C(=O)NCc2ccc(Cl)cc2)CC1,1,1.6
Cc1ccc(CNC(=O)CCc2cn(Cc3ccccc3)c3ccccc23)cc1,1,0.69
Fc1ccccc1-c1nnc(-c2ccc3c(c2)OCO3)o1,0.9,-1.6
Cc1ccc(NC(=O)CN(C)S(=O)(=O)c2ccc3c(c2)n(C)c(=O)c(=O)n3C)cc1Cl,1,0.73
Cc1ccc(CNC(=O)C2CC(=O)N(C3CCCCCCC3)C2)cc1 (configuration not stated),1.1,1.6
O=C(NC1CC1)c1ccc2c(c1)N(Cc1ccc(F)cc1)CCS2,0.96,-0.22
CCN(CC)C(=O)c1ccccc1NC(=O)c1cccc(S(=O)(=O)N2CCCCCC2)c1,0.97,-0.19
Cc1c(C(=O)N2CCN(c3ccc(F)cc3)CC2)sc2ncnc(N3CCc4ccccc4C3)c12,0.92,-0.96

# 2 entries from above, bar-delimited:
SMILES | CBX7 AlphaScr | CBX7 AlphaScr z-score
O=C(Nc1nc2ccc(Br)cc2s1)c1ccccc1Oc1ccccc1 | 0.96 | -0.092
CS(=O)(=O)N1CCC(C(=O)NCc2ccc(Cl)cc2)CC1 | 1 | 1.6

# Continued:
SMILES,CBX7 AlphaScr,CBX7 AlphaScr z-score
c1ccc(CCNc2nc(-c3ccncc3)nc3ccccc23)cc1,1,0.037
C=CCN(C(=O)Cc1c(C(=O)O)[nH]c2ccc(Cl)cc12)c1ccccc1,1.1,2.3
CCCCc1ccc(NC(=O)CSc2nccn2-c2cccc(OC)c2)cc1,0.8,-3.1
O=C(Nc1cccc(F)c1)c1cccnc1Nc1ccc(F)cc1,0.67,-3.1
CCOC(=O)c1ccc(NC(=O)c2cn(-c3ccccc3)nc2-c2ccc(OC)cc2)cc1,0.9,-2.4
O=C1NCCCc2nonc21,0.97,-0.49
Cc1ccc(C)c(-n2c(Cc3cc(=O)[nH]c(=O)[nH]3)nnc2SCC(=O)NC2CCCCC2)c1,1,0.035
Cc1cc(N2CCCCC2)nc2ccc(NC(=O)CCC(=O)NC(C)C)cc12,1.1,1.4
Cc1onc(-c2ccccc2)c1C(=O)Nc1nnc(N2CCCCCC2)s1,1,0.26
COc1ccc(CNC(=O)c2cc(-c3ccc(Br)cc3)on2)cc1,1,0.033
CC(CNC(=O)c1csc2c1CCCC2)c1ccccc1 (configuration not stated),1,0.15
Cc1oc(-c2ccccc2F)nc1CN1CCC(C(=O)NCc2ccccc2Cl)CC1,1.1,1.1
CC(=O)N1CCc2cc(S(=O)(=O)NCCC(=O)NCCc3ccc(C)cc3)ccc21,1,1.1
CCOc1ccccc1NC(=O)c1n[nH]c(=O)c2ccccc12,0.98,-0.64
CCN1C(=O)c2ccccc2S(=O)c2ccc(C(=O)NCCc3c[nH]c4ccccc34)cc21 (configuration not stated),0.91,-2.4
Cn1c(=O)n(CC(=O)Nc2ccccc2)c2ccccc21,1,0.22
O=C1CC(N2CCN(C(c3ccccc3)c3ccccc3)CC2)C(=O)N1c1cccc(Cl)c1 (configuration not stated),0.97,-0.43
CC(=O)N1c2ccccc2N(Cc2ccc(C)cc2C)C(=O)C1(C)C,0.99,-0.25
CCC(C)NC(=O)C1c2cc(OC)c(OC)cc2C(=O)N2CCc3ccccc3C12 (configuration not stated),1,1.2
COc1ccc(C(=O)NCC2(c3ccc(OC)c(OC)c3)CCCC2)cc1,0.96,-0.79

# The closing 3 compounds of the part before lead into the next:
SMILES,CBX7 AlphaScr,CBX7 AlphaScr z-score
CC(=O)N1c2ccccc2N(Cc2ccc(C)cc2C)C(=O)C1(C)C,0.99,-0.25
CCC(C)NC(=O)C1c2cc(OC)c(OC)cc2C(=O)N2CCc3ccccc3C12 (configuration not stated),1,1.2
COc1ccc(C(=O)NCC2(c3ccc(OC)c(OC)c3)CCCC2)cc1,0.96,-0.79
CCOc1cccc(-c2cc(C(=O)Nc3cc(C(C)(C)C)on3)c3ccccc3n2)c1,0.95,-0.67
Brc1ccc(-c2[nH]c(C3CC=CCC3)nc2-c2ccccc2)cc1 (configuration not stated),0.91,-3.3
CCC(C)NC(=O)CN1CCN(Cc2cccc(Cl)c2)C1=O (configuration not stated),0.88,-1.5
Cc1ccc(Nc2cc(C(=O)NCC3CCCO3)c3ccccc3n2)cc1C (configuration not stated),1.1,1.9
Fc1cccc(CSc2nc3ccncc3n2Cc2cccc(F)c2)c1,0.96,-1.8
CCCS(=O)(=O)N1CCCC(C(=O)NC(C)c2ccccc2)C1 (configuration not stated),1,-0.02
Cc1c(C(=O)NCc2ccccn2)oc2ccc(S(=O)(=O)N3CC(C)CC(C)C3)cc12 (configuration not stated),1,0.13
Cc1onc(-c2ccccc2Cl)c1-c1nc(-c2ccc(C(F)(F)F)cc2)no1,1.2,2.5
Cc1ccc(CNc2nnc(Cc3ccncc3)c3ccccc23)cc1,0.99,-0.57
Nc1nonc1-c1nc2ccccc2n1Cc1ccc(Cl)c(Cl)c1,1,-0.0047
COc1ccc(CNC(=O)CS(=O)(=O)Cc2nc(-c3cccc(OC)c3)oc2C)cc1,1,0.55
COc1cccc(Nc2cc(C)c3ccccc3n2)c1,1.1,3.7
O=C(CN1C(=O)CC(c2ccccc2)Sc2ccccc21)NC1CCCCC1 (configuration not stated),0.97,-0.44
CCC1Sc2ccccc2N(CC(=O)NC2CC2)C1=O (configuration not stated),0.96,-1.3
Cc1ccccc1S(=O)(=O)Nc1cc(Br)c2oc3c(c2c1)C(=O)CCC3,1,0.12
COc1ccc(CC(=O)NCCc2cc3c(C)ccc(C)c3[nH]c2=O)cc1OC,1.2,0.31
CCCn1c(C(Cc2ccccc2)NC(=O)COC)nc2ccccc21 (configuration not stated),1,0.85
COc1ccc(Cl)cc1N1CC(c2nc3ccccc3n2CCOc2cccc(C)c2)CC1=O (configuration not stated),1,-0.08
CCN(C(=O)Cn1nc(Cc2ccncc2)c2ccccc2c1=O)c1cc(C)ccc1C,0.98,-0.46
COc1cccc(NC(=O)C2CCCN2S(=O)(=O)c2cccc3cccnc23)c1 (configuration not stated),1.2,1.7
COc1ccc(-c2nc3cc(C)c(C)cc3nc2-c2ccc(OC)cc2)cc1,2,6.6
COc1ccc(C)cc1-n1cnc2cc(C(=O)NC3CCCCCC3)ccc21,0.93,-0.79
COc1ccc(CCNC(=O)C2(c3ccccc3)CCOCC2)cc1OC,1.1,0.5
O=C(CCn1nc(-c2ccccc2)c2ccccc2c1=O)Nc1cccnc1,1,0.33
COc1cccc(-c2cc(C(=O)Nc3ccc(C)c(C)c3)no2)c1,1.2,1.9
O=C(Nc1ccc2nn(-c3ccc(Cl)cc3)nc2c1)c1ccncc1,0.96,-0.43
Cc1cc2cc(CCNC(=O)CCC3CCCCC3)c(=O)[nH]c2cc1C,1.1,0.42
COc1ccc(NC(=O)c2cnn(-c3ccccc3)c2NC(=O)c2cccc(F)c2)cc1,0.91,-0.95
Cc1nc2c(C(=O)NC3CCCC3)c[nH]n2c(=O)c1Cc1ccc(F)cc1Cl,0.98,-0.56
CCCCN(C)CCCNC(=O)CC1Oc2ccccc2NC1=O (configuration not stated),1.2,1.3
Cc1ccc(S(=O)(=O)N2CCC(C(=O)NC3CCCc4ccccc43)CC2)cc1 (configuration not stated),1,0.13
Cc1ccc(-c2noc(CCC(=O)NCCN3CCN(Cc4ccccc4)CC3)n2)cc1,1.3,5.3
O=C(CCCN1CCC(c2ccccc2)C1)c1ccc2c(c1)OCCO2 (configuration not stated),1.4,0.9
CCc1ccccc1NC(=O)c1cnc2scc(C)n2c1=O,1.1,2.8
COc1cc(CN2CCN(Cc3cc(OC)c(OC)cc3OC)CC2)cc(OC)c1,1.1,2.2
O=C1C[C@@H](c2ccccc2)[C@@H](c2ccccc2)CN1,0.98,-0.49
CCOC(=O)N1CCN(c2c(NCCCN3CCCC3)c(=O)c2=O)CC1,1.1,1.2
Cc1ccc(N(CC(=O)Nc2ccc(Cl)cc2)S(=O)(=O)c2c(C)noc2C)cc1,0.91,-0.74
Cc1cc(N2CCCCC2)nc2ccc(NC(=O)CCC(=O)NC3CC3)cc12,0.98,-0.026
COc1cccc(CNC(=O)c2ccc3c(c2)N(Cc2cccc(Cl)c2)C(=O)c2ccccc2S3)c1,0.98,-0.43

# Compound profiles (already shown). Order of values: CBX7 AlphaScr	CBX7 AlphaScr z-score
# CCCCN(C)CCCNC(=O)CC1Oc2ccccc2NC1=O (configuration not stated) reads 1.2	1.3
# CCc1ccccc1NC(=O)c1cnc2scc(C)n2c1=O reads 1.1	2.8
# Cc1nc2c(C(=O)NC3CCCC3)c[nH]n2c(=O)c1Cc1ccc(F)cc1Cl reads 0.98	-0.56
# Cc1ccc(N(CC(=O)Nc2ccc(Cl)cc2)S(=O)(=O)c2c(C)noc2C)cc1 reads 0.91	-0.74

# Next section
SMILES,CBX7 AlphaScr,CBX7 AlphaScr z-score
OCCCn1c(-c2ccccc2)cn2c3ccccc3nc12,0.77,-2.7
CC1CCN(CC(O)COc2ccc(F)cc2)CC1 (configuration not stated),1.1,2.7
FC(F)(F)c1c2c(nc3c(-c4cccc(Br)c4)cnn13)CCC2,0.93,-1.3
COc1cccc(C2=NOC(C(=O)Nc3cccc(O)c3)C2)c1OC (configuration not stated),1,1.1
CCC1CCCCN1C(=O)CSc1nnc(-c2ccc(Cl)s2)o1 (configuration not stated),1.2,2.7
COc1ccc(-c2nnc(SCC(=O)Nc3cc(C)on3)o2)cc1,1.3,0.78
COc1cc(OC)cc(-c2nnc(SCC(=O)N3CCc4ccccc43)o2)c1,1,2.2
O=C(Nc1nnc(COc2ccccc2)s1)c1cccc(Br)c1,1,0.41
COc1nnc(-c2ccc(C)c(S(=O)(=O)NCc3cccnc3)c2)c2ccccc12,0.77,-4.1
Cc1ccc(CCN2C(=O)CCC2(C)C(=O)NCc2cccnc2)cc1 (configuration not stated),1,0.21
O=C(Nc1ccc(Br)cc1)C1CC(=O)N(c2ccc(F)cc2)C1 (configuration not stated),1.1,0.64
